Assay outcomes from PubChem BioAssay.
KCNQ2 block – KCNQ2 potassium channel inhibitors, primary screen, cell-based, CHO-K1, FluxOR thallium flux, B-score (AID 2156); Potassium voltage-gated channel subfamily KQT member 2 (Rattus norvegicus), O88943; 20 min; stronger effect = lower value; only compounds with negative scores are shown here; some inactives read as strong as hits; B-score at 10 µM; hit rate 1.1% among 310,000;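 active = fluorescence ratio B-score at most minus 3 library SDs, with starting brightness B-score within 2 library SDs, cut at about -5.5 in these data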
Target sequence (O88943 whole entry, looked up): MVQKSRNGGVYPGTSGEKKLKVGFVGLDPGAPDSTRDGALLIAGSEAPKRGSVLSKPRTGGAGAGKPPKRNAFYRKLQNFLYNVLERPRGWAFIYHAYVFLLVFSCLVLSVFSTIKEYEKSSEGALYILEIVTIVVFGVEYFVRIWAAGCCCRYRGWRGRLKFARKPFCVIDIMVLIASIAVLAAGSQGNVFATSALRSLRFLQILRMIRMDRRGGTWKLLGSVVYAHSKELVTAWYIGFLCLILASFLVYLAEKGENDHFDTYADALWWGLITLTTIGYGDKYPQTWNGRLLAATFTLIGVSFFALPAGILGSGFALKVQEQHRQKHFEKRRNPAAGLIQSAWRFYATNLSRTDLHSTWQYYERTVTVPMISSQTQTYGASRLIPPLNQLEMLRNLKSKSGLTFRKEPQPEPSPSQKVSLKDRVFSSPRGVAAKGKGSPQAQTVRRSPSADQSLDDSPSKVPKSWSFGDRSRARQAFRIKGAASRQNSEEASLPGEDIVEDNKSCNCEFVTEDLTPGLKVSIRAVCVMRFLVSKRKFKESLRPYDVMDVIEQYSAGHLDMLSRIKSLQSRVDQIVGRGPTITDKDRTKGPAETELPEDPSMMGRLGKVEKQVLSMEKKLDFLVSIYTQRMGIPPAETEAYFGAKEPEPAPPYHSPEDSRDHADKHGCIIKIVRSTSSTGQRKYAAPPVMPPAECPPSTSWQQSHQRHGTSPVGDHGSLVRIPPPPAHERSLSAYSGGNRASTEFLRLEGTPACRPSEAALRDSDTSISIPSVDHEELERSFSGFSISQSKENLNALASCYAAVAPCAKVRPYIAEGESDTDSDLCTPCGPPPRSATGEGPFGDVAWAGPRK
KCNQ2 block baseline – recorded beside KCNQ2 block, whose call it bears; B-score; measured here: initial fluorescence intensity artifact check;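 brightness before thallium and not channel activity; 0 = typical well and far values either way flag optical interference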
Starred values were filed as active, the others as inactive; i = inactive. These rows are one share of the data; the hit share may differ from the screen's.

entry	SMILES	KCNQ2 block	KCNQ2 block baseline
1	O=C(Nc1ccccc1)c1c(O)c2c(n(Cc3ccco3)c1=O)CCCC2	i	-1.59
2	Cc1ccc(S(=O)(=O)Oc2ccccc2C=C2C(=O)N(C)C(=O)N(C)C2=O)cc1	i	0.36
3	COc1ccccc1N1CCN(Cc2ccc(F)cc2)CC1	i	3.49
4	Cc1cccc(N2C(=O)CC(=O)NC2=O)c1	i	-0.07
5	COc1ccc(OCC(=O)N2CCCC(N3CCN(c4ccccc4C)CC3)C2)cc1 (stereo unspecified)	i	-1.15
6	CCC(C)N1C(=O)/C(=C\c2cnc(N(C)C)nc2)C(=O)NC1=S (stereo unspecified)	i	1.04
7	O=C(O)Cn1cc(/C=C2\C(=O)NC(=O)N(c3ccc(F)cc3)C2=O)c2ccccc21	i	0.55
8	FC(F)(F)c1ccccc1CCN1CCNCC1	i	-0.82
9	COc1cccc(C(=O)N2C[C@H]3C[C@@H](C2)c2cccc(=O)n2C3)c1	i	1.7
10	Cc1sc(-n2c(C)cc(C=C3C(=O)NC(=O)NC3=O)c2C)c(C#N)c1C	i	0.35
11	COc1ccc(OC)c(-n2c(O)c(C=NCCN3CCNCC3)c(=O)[nH]c2=S)c1	i	0.65
12	Cc1cccc(CN2CCN(c3ccc(Cl)cc3)CC2)c1	i	-0.58
13	Fc1ccc(CCNCc2ccc(Cl)c(Cl)c2)cc1	i	0.4
14	c1ccc2sc(C3CCCNC3)nc2c1 (stereo unspecified)	i	-0.37
15	CCN(CC)c1ccc(N=Cc2c(O)n(-c3ccc(Cl)cc3)c(=O)[nH]c2=O)cc1	i	2.23
16	CCCCn1c(=O)c(C(=O)Nc2ncccc2C)c(O)c2ccccc21	i	0.04
17	Cc1ccc(NP(=O)(c2ccccc2)c2nc3ccccc3s2)cc1 (stereo unspecified)	i	0.28
18	c1ccc(CNC2=NCCS2)cc1	i	1.88
19	Cn1cccc1/C=C1\C(=O)NC(=O)N(CCC2=CCCCC2)C1=O	i	0.72
20	CNc1cc(N2CCNCC2)ccc1[N+](=O)[O-]	i	0.46
21	O=P(O)(O)/C=C(\Cl)c1ccccc1	i	0.44
22	O=C(c1cccn2c(=O)c3cc(Br)ccc3nc12)N1CCC2(CC1)OCCO2	i	-0.68
23	CCn1c(O)c(/C=N/NC(=O)c2ccccc2)c(=O)[nH]c1=S	i	-2.44
24	CCN(CC)P(=O)(Oc1cccc(C)c1)N(CC)CC	i	0.51
25	COc1ccc2c(c1O)C13CCN(C)C(C2)C1CCC(=O)C3 (stereo unspecified)	i	0.04
26	Cc1ccc2c(c1)CC1(CN2C)C(=O)NC(=O)N(CCC2=CCCCC2)C1=O (stereo unspecified)	i	2.59
27	Cc1cccc(OCC(=O)N2CCN(Cc3ccncc3)CC2)c1	i	0.42
28	CCOc1ccccc1-n1c(O)c(C=NCCCN(CC)CC)c(=O)[nH]c1=O	i	0.99
29	O=P(Nc1ccccc1)(Nc1ccccc1)Oc1ccccc1	i	0.74
30	[N-]=[N+]=NCc1cn2cccnc2n1	i	-0.32
31	COc1cc2c(c(OC)c1OC)-c1ccc(O)cc1[C@@H](NC(C)=O)CC2	i	-0.5
32	Fc1ccc2c(c1)nnn2C1CCN(Cc2nnnn2C2CCCCC2)CC1	i	-1.99
33	Cc1c(NP(=S)(C(C)(C)C)C(C)(C)C)c(=O)n(-c2ccccc2)n1C	i	1.34
34	O=C(CN1CCCCC1)Nc1ccc(Br)cc1C(=O)c1ccccc1Cl	i	1.67
35	CCN(CC)C(=O)c1ccc(NC(=O)c2cccc(S(=O)(=O)N3CCN(Cc4ccccc4)CC3)c2)cc1	i	-1.3
36	COc1cccc(OCc2cc(C(=O)N3C[C@H]4C[C@@H](C3)c3cccc(=O)n3C4)no2)c1	i	0.2
37	Cc1ccc(-n2c(-c3ccc([N+](=O)[O-])cc3)nc3ccccc3c2=O)cc1	i	-1.03
38	C=CCn1c(O)c(C(C)=Nc2ccc3c(c2)CCC3)c(=O)[nH]c1=O	i	1.39
39	O=C1NC(=O)N(c2ccc(F)cc2)C(=O)/C1=C/c1ccsc1	i	-0.02
40	O=C1/C(=C/c2cc3c(cc2Cl)OCO3)N2CCC1CC2	i	0.44
41	COCCNC(=O)c1c(NC(=O)c2ccc(Br)o2)n(Cc2ccccc2)c2nc3ccccc3nc12	i	0.86
42	CC1=C(C/C(C)=C/c2ccccc2)/C(=C/CO)[C@H](O)[C@](C)(O)C12CC2	i	0.97
43	COc1ccc(CCn2c(O)c(C=Nc3ccc(NC(C)=O)cc3)c(=O)[nH]c2=O)cc1OC	i	0.48
44	CCCCC(=O)C1C(=O)NC(=O)NC1=O	i	0.61
45	C[C@]12CCC(OC(=O)CCC(=O)O)CC1=CCC1C2CC[C@]2(C)C(=O)CCC12 (stereo partly specified)	i	1.52
46	COc1ccc(-n2c(-c3ccccc3Br)nc3ccccc3c2=O)cc1	i	-1.33
47	Cc1ccc(-c2nc3ccccc3c(=O)n2-c2cc(C)ccn2)cc1	i	1.36
48	CCOc1cc(-c2nc3c(C)cccn3c2NCC2CCCO2)ccc1O (stereo unspecified)	i	-0.04
49	Cc1nn(Cc2ccccc2Cl)c(C)c1C(=O)NC1CCCc2ccccc21 (stereo unspecified)	i	2.73
50	CCOP(=O)(OCC)C1(O)C(=O)Nc2ccccc21 (stereo unspecified)	i	-0.24

Whole records, quoted from the list. Order of values: KCNQ2 block | KCNQ2 block baseline
Cc1ccc(-n2c(-c3ccc([N+](=O)[O-])cc3)nc3ccccc3c2=O)cc1 in the list: i | -1.03
[N-]=[N+]=NCc1cn2cccnc2n1 in the list: i | -0.32

Next results
entry	SMILES	KCNQ2 block	KCNQ2 block baseline
51	c1cncc(C2CCCCN2)c1 (stereo unspecified)	i	-2.33
52	Cc1nn(Cc2ccccc2)c(Cl)c1C(=O)NC1CCCc2ccccc21 (stereo unspecified)	i	-0.02
53	O=C(CN1CC(c2ccccc2)CC1=O)Nc1ccc(F)cc1 (stereo unspecified)	i	-1.35
54	COc1cc2[nH]c(=O)n(-c3ccc(C)cc3)c(=O)c2cc1OC	i	-0.31
55	CC(=O)N1CC(=O)Nc2ccc(C)cc2C1c1ccccc1 (stereo unspecified)	i	0.8
56	COc1ccc(-c2cc(-c3ccccc3)[n+](C)c(-c3ccccc3)c2)cc1	i	0.3
57	Cc1ccsc1/C=C1\C(=O)NC(=S)N(C)C1=O	i	-0.25
58	N#Cc1ccc(N2CCNCC2)c(F)c1	i	0.01
59	O=c1[nH]c(=O)n(Cc2ccco2)c(O)c1C=NC1CC1	i	0.77
60	CC(C)CN1CCN(Cc2c(F)cccc2Cl)CC1CCO (stereo unspecified)	i	-0.69
61	CC(=O)Nc1ccc(C(=O)C(Cc2ccccc2)N(C)C)cc1 (stereo unspecified)	i	-0.08
62	Cc1cc(OCC(=O)N2C[C@H]3C[C@@H](C2)c2cccc(=O)n2C3)c2c(C)c(C)c(=O)oc2c1	i	4.83
63	CCC(=Nc1ccc(OC)cc1OC)c1c(O)n(C2CCCCC2)c(=O)[nH]c1=O	i	0.16
64	Cc1ccc(S(=O)(=O)N(c2cc(Cl)c(O)c(Cl)c2)P(=O)(OC(C)C)OC(C)C)cc1	i	-0.41
65	CCN1C(=O)C(=C2C=C(C)N(Cc3ccco3)C(C)=C2)C(=O)N(CC)C1=S	i	0.02
66	CN(C)/C=C1/C(=O)NC(=O)N(CCNc2ncc(C(F)(F)F)cc2Cl)C1=O	i	0.99
67	CN1c2ccc([N+](=O)[O-])cc2CC2(C(=O)NC(=O)N(c3ccccc3)C2=O)C1c1ccccc1 (stereo unspecified)	i	-0.5
68	O=C1NC(=O)C(=Cc2cc(Cl)ccc2OCc2ccc(C(=O)O)cc2)C(=O)N1	i	0.3
69	Cc1cc(=O)oc2cc(OCC(=O)N3CCC(C(=O)O)(c4ccccc4)CC3)ccc12	i	0.29
70	Cc1cccc(CN2CCCN(Cc3ccc(Cl)cc3)S2(=O)=O)c1	i	-0.16
71	CN(C)C=C1C(=O)N(C2CCCCC2)C(=O)N(C2CCCCC2)C1=O	i	-0.97
72	O=C(Cc1ccccc1)N1CCN(C/C=C/c2ccccc2)CC1	i	-2.69
73	CC(=O)c1cn(CCCOc2ccccc2)c2ccccc12	i	-0.02
74	COc1ccc(N2C(=O)CC(N3CC=C(c4ccccc4)CC3)C2=O)cc1 (stereo unspecified)	i	1.12
75	COCCCn1c(-c2ccc(OC)cc2)cc(C(=O)NC2CCCCCCC2)c1C	i	-0.53

Gathered by group, the entries above containing a thiophene ring, fused or not
entry	SMILES	KCNQ2 block	KCNQ2 block baseline
10	Cc1sc(-n2c(C)cc(C=C3C(=O)NC(=O)NC3=O)c2C)c(C#N)c1C	i	0.35
39	O=C1NC(=O)N(c2ccc(F)cc2)C(=O)/C1=C/c1ccsc1	i	-0.02
57	Cc1ccsc1/C=C1\C(=O)NC(=S)N(C)C1=O	i	-0.25

Next part:
item | SMILES | KCNQ2 block | KCNQ2 block baseline
76 | COc1ccc(-n2c(O)c(C=NCc3ccc4c(c3)OCO4)c(=O)[nH]c2=O)cc1 | i | -0.01
77 | CN1C(=O)NC(=O)[C@]2(Cc3ccccc3N3CCN(c4ccccc4)CC32)C1=O (stereo partly specified) | i | 2.4
78 | CC(C)COC(=O)c1ccccc1C(=O)OCC(C)C | i | -1.72
79 | CCOC(=O)Cn1cc([N+](=O)[O-])nc1[N+](=O)[O-] | i | 1.21
80 | CCOc1cc2c(cc1OCC)-n1cccc1C(c1ccc(C)cc1C)NC2 (stereo unspecified) | i | 0.16
81 | CC(C)C12CN3CCN(CC(C3)C1O)C2 (stereo unspecified) | i | -0.06
82 | c1ccc2[nH]c(CCNC3CCCCC3)nc2c1 | i | 0.72
83 | N#CCCn1cc(C(=O)NCc2ccccc2)c(-c2ccccc2)n1 | i | 0.81
84 | Cc1ccc(N(C)C(=O)Oc2cccc3cccnc23)cc1 | i | 0.94
85 | O=C1NC(=O)N(Cc2ccc(F)cc2)C(=O)/C1=C/c1cccs1 | i | -0.43
86 | O=C(c1ccccc1F)N1CCC2(CC1)OCCO2 | i | 0.38
87 | Cc1nc2ccccc2c(=O)n1-c1cccnc1 | i | 1.61
88 | CCCCOc1ccc(C(C)=O)cc1Cc1c(O)[nH]c(=S)[nH]c1=O | i | 1.43
89 | Cn1c(O)c(C=NC2CCN(Cc3ccccc3)CC2)c(=O)[nH]c1=O | i | -1.2
90 | COc1cc(CN=C(C)c2c(O)n(C)c(=O)n(C)c2=O)cc(OC)c1 | i | -0.01
91 | CC(=O)O[C@@H]1/C=C/[C@](C)(O)C[C@@H](C)C/C=C/[C@H]2[C@H](O)[C@@](C)(O)[C@@H](C)[C@H]3[C@H](Cc4ccccc4)NC(=O)[C@@]312 | i | 0.08
92 | O=C(C(=O)N1CCOCC1)c1cn(CCCOc2ccccc2)c2ccccc12 | i | -0.77
93 | CCOC(=O)CC(NC(=O)C(Cc1ccc(N(CCCl)CCCl)cc1)NC(C)=O)C(=O)OCC (stereo unspecified) | i | 1.45
94 | COc1ccc(/C=C2\C(=O)NC(=S)N(C)C2=O)cc1C | i | 0.07
95 | Cc1cccn2c(NCC3CCCO3)c(C(C)C)nc12 (stereo unspecified) | i | 0.28
96 | C=CC1CN2CCC1CC2C(OC(C)=O)c1ccnc2ccc(OC)cc12 (stereo unspecified) | i | 0.46
97 | CCC/C(=N\O)c1c[nH]c2ccccc12 | i | 0.34
98 | CN1CCN(c2ncnc3c2cnn3C)CC1 | i | 0.13
99 | CN1C(=O)C(c2ccccc2)C(=O)N(C)C1=O | i | -1.58
100 | CCc1nn(CC(=O)N2CCC3(CC2)OCCO3)c(=O)c2cccn12 | i | -0.33
101 | O=P(Nc1ccccc1)(Nc1ccccc1)Oc1ccc(Cl)cc1 | -9.69* | -1.08*
102 | C=CCN1CC[C@]23c4c5ccc(O)c4O[C@H]2C(=O)CC[C@@]3(O)[C@H]1C5 | i | 0.36
103 | CC1CCC(C(C)C)C(OC(=O)COC(=O)c2ccccc2N)C1 (stereo unspecified) | i | -1.36
104 | O=C1Nc2cc(C(=O)N3CCC4(CC3)OCCO4)ccc2NC1CSCc1cccc(F)c1 (stereo unspecified) | i | 0.29
105 | COc1c(/C=C2/C(=O)NC(=O)N(C)C2=O)c(CCN(C)C(=O)c2ccccc2)cc2c1OCO2 | i | 1.04
106 | COc1ccccc1N1CCN(Cc2ccccc2Cl)CC1 | i | 0.63
107 | CN1CCc2nc(SCc3ccccc3Br)c(C#N)cc2C1 | i | -2.19
108 | CCN1CCN(Cc2cc(Br)cc(Br)c2O)CC1 | i | -0.59
109 | CC1CCCC(NC(=O)COC(=O)Cc2ccccc2)C1C (stereo unspecified) | i | 3.17
110 | COc1cc(CC2C(=O)N(C)C(=O)N(C)C2=O)ccc1OCc1ccccc1 | i | -1.28
111 | CN(C)CCn1cnc2ccccc21 | i | -0.18
112 | Brc1ccc(-[n+]2c(-c3ccccc3)cc(-c3ccccc3)cc2-c2ccccc2)cc1 | -8.41* | -0.72*
113 | O=P(Nc1cccnc1)(Oc1ccccc1Cl)Oc1ccccc1Cl | i | 0.78
114 | O=C1CSC2(CN3CCC2CC3)N1 (stereo unspecified) | i | 0.28
115 | COc1cc(C)cc(CN2CC=C(c3ccccc3)CC2)c1O | i | -0.07
116 | O=C1CN=C(c2ccccc2)c2cc(Br)ccc2N1 | i | 2.38
117 | CN(C)CC#CCn1c2ccccc2c2ccccc21 | i | 1.81
118 | O=C(CCCCCn1c(=S)[nH]c2ccccc2c1=O)N1CCC2(CC1)OCCO2 | i | 1.69
119 | CC1CCN(CC#CCOc2ccc(Cl)cc2)CC1 | i | 0.3
120 | O=C1/C(=C\c2cc3c(cc2Cl)OCO3)N2CCC1CC2 | i | 0.6
121 | COc1ccc(C(C)=O)cc1CC(C(=O)c1ccc(C)cc1)N(C)C (stereo unspecified) | i | -0.1

An excerpt from above in order of formula weight, rising.
item | SMILES | KCNQ2 block | KCNQ2 block baseline
111 | CN(C)CCn1cnc2ccccc21 | i | -0.18
117 | CN(C)CC#CCn1c2ccccc2c2ccccc21 | i | 1.81
115 | COc1cc(C)cc(CN2CC=C(c3ccccc3)CC2)c1O | i | -0.07
